Screening data as filed in PubChem.
OX1R antagonist: human HCRTR1 antagonism. CHO/OX1R cells, Fluo-8 calcium fluorescence, orexin A. 0.43% of 330,000 active. inhibition, % at 5 µM. AID 434989. O43613;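 active = inhibition above its plate's threshold, mean inhibition of all tested compounds on the plate plus 3 SD, cut at about 37% in these data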;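 note: 0% = orexin A challenge wells and 100% = SB-334867-A antagonist wells; not every result past the cut was called active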
Target sequence (O43613 whole entry, looked up): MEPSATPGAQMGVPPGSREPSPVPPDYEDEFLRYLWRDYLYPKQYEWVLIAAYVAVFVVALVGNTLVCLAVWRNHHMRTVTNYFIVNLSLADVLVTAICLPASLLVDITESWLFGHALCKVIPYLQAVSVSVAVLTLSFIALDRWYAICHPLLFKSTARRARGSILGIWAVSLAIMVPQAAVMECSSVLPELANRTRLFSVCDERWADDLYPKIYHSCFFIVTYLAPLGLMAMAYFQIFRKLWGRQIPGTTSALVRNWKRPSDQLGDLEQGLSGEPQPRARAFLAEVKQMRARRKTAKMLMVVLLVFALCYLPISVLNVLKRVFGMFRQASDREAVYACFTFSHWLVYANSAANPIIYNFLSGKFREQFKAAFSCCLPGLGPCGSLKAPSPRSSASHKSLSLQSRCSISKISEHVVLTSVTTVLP
Numbers without * were called inactive; & = joins results of further samples. An excerpt, and most or all hits are left out here.

| molecule | OX1R antagonist |
| --- | --- |
| CC1CCCCC1NC(=O)/C(C#N)=C/c1ccc2c(c1)OCCO2 (configuration not stated) | -48 |
| O=c1c(Cc2ccccc2)c(O)ccn1CCc1cnc[nH]1 | -21 |
| Cc1cc(C)c(S(=O)(=O)N2CCN(c3ccc([N+](=O)[O-])c(NCc4ccco4)c3)CC2)c(C)c1 | -5 |
| CC12CCC(C(=O)NCC3CCCO3)(OC1=O)C2(C)C (configuration not stated) | -4 |
| COc1cc(C(=O)N(Cc2ccccn2)CC2CCCO2)cc(OC)c1OC (configuration not stated) | -8 |
| Cc1ccc(S(=O)(=O)CCC(=O)Nc2ccc(S(=O)(=O)N(C)C)cc2)cc1 | -9 |
| CCOC(=O)c1c(C)nc2sc(C(=O)Nc3ccc(OC)cc3)c(N)c2c1-c1ccc(OC)cc1 | -24 |
| Nc1nnc(CC(=O)NCc2ccccc2)s1 | 6 |
| CCCS(=O)(=O)c1csc(C(=O)OC)c1N | 24 |
| Cc1ccc(NC(=O)CN(C)C(=O)Cc2ccccc2F)cc1 | -9 |
| O=C(Nc1ccccc1)C(Cl)C(=O)c1ccccc1 (configuration not stated) | -3 |
| O=C(NCc1ccccn1)NC12CC3CC(CC(C3)C1)C2 | -14 |
| O=C(C1=COCCO1)N(Cc1nnc(-c2ccc(Cl)cc2)o1)C1CC1 | -17 |
| O=C(Nc1nc2ccccc2n1Cc1ccccc1)c1ccc(COc2ccccc2[N+](=O)[O-])o1 | -26 |
| COc1cccc(-c2cc(C(=O)Nc3cccnc3Cl)no2)c1 | -9 |
| Cc1oc2c(c1C(=O)Nc1cccc(C(=O)O)c1)CCCC2 | -10 |
| Cc1oc(C(C)(C)C)cc1-c1cc(NC(=O)c2ccc([N+](=O)[O-])cc2)n[nH]1 | -22 |
| CCCCNC(=O)NNC(=O)c1ccoc1C | -17 |
| O=C(NC1CC1)c1ccc(CS(=O)c2ccc(Br)cc2)o1 (configuration not stated) | 7 |
| COc1ccc(-c2c3c(=O)n(C)c(=O)n(C)c3cn2Cc2ccccn2)cc1 | 4 |
| CN1CCN(CC(=O)N/N=C/c2ccc(F)c(F)c2)CC1 | -3 |
| Cc1cc(C)c(C(N)=O)c(Cl)n1 | 1 |
| CCC(CC)C(=O)Nc1ccccc1-n1cccc1 | -14 |
| O=C(N=C1c2ccccc2CN1c1cccc(Cl)c1)c1cccnc1 | -20 |
| COC(=O)CNC(=O)CSc1nnc(-c2ccc(OC)cc2)n1CC(C)C | -13 |
| CN1C(=O)N(C)c2ccc(C=O)c3cccc1c23 | -12 |
| CS(=O)(=O)N1CCN(CC(=O)NC2CCCCC2)CC1 | -23 |
| O=C(CNC(=O)c1ccccc1C(F)(F)F)N/N=C/c1cccs1 | -1 |
| COC(=O)CC1=C(C(=O)OC)C(c2cccc(OCC(N)=O)c2)C(C#N)=C(N)O1 (configuration not stated) | -5 |
| CC1(C)CC(=O)C2=C(C1)Nc1cc3c(cc1C2c1ccc2c(c1)OCO2)OCO3 (configuration not stated) | -11 |
| O=C(C1CCC1)N1CCc2cc(S(=O)(=O)NCCCN3CCCCC3)ccc21 | -14 |
| O=C(CN1CCOc2ccccc21)NCc1ccccc1 | -6 |
| COc1ccc(/C=N/NC(=O)c2ccncc2)c(OC)c1 | -24 |
| COc1ccccc1C1CCN(c2ccc([N+](=O)[O-])cn2)CC1 | -15 |
| Cc1ccc(S(=O)(=O)Cn2nnnc2C(c2ccc(F)cc2)N2CCC(C(N)=O)CC2)cc1 (configuration not stated) | -12 |
| COc1ccccc1NC(=O)CSc1nc(O)c(Cc2ccccc2)c(=O)[nH]1 | -33 |
| COc1ccc2nc(-c3ccccc3)[nH]c2c1 | -17 |
| CCOc1ccc(Cn2nnc(C(=O)Nc3cc(C)cc(C)c3)c2N)cc1 | -12 |
| COc1cccc(C2CC(=O)N3CN(c4ccccc4F)CSC3=C2C#N)c1 (configuration not stated) | -20 |
| O=[N+]([O-])c1cccc(C(=S)N2CCN(c3ccccc3F)CC2)c1 | -27 |

Ordered by SMILES length (largest number first): 6 of the compounds above.
| molecule | OX1R antagonist |
| --- | --- |
| Cc1ccc(S(=O)(=O)Cn2nnnc2C(c2ccc(F)cc2)N2CCC(C(N)=O)CC2)cc1 (configuration not stated) | -12 |
| COc1cccc(C2CC(=O)N3CN(c4ccccc4F)CSC3=C2C#N)c1 (configuration not stated) | -20 |
| CCOc1ccc(Cn2nnc(C(=O)Nc3cc(C)cc(C)c3)c2N)cc1 | -12 |
| COc1ccc(/C=N/NC(=O)c2ccncc2)c(OC)c1 | -24 |
| O=C(CN1CCOc2ccccc21)NCc1ccccc1 | -6 |
| COc1ccc2nc(-c3ccccc3)[nH]c2c1 | -17 |

Remaining list, next part
| molecule | OX1R antagonist |
| --- | --- |
| Cn1c(=O)[nH]c(=O)c2c1nc(Br)n2CCOc1ccccc1 | -10 |
| CNC(=S)NC1CC2CCC(C1)N2Cc1ccccc1 (configuration not stated) | -5 |
| COc1ccc(N2CCOCC2)c(NC(=O)COc2cccc(C)c2C)c1 | -36 |
| CC(=O)c1ccc(NC(=O)CNCc2cccs2)cc1 | -30 |
| Cn1nnnc1SCC(=O)N(C1CCCCC1)C1CCS(=O)(=O)C1 (configuration not stated) | -10 |
| S=C(NC1CCCC1)NC1CCCC1 | 8 |
| Cn1ccnc1SCC(=O)c1ccc([N+](=O)[O-])cc1 | 3 |
| CC(=O)n1cc(/C=N/NC(=O)c2sc(C)nc2C)c2ccccc21 | -31 |
| COc1ccc(CCNC(=O)C(=O)NN=C2CCCCCCC2)cc1OC | -30 |
| COc1cccc(NC(=O)c2ccccc2-c2ccccc2C(=O)O)c1 | -2 |
| C=CCc1cc(Cl)ccc1OCCNCCOC | -29 |
| COc1cc(NC(=O)CNC(c2ccccc2)c2ccccc2)cc(OC)c1OC | -42 |
| COc1cc(/C=C/C(=O)OCC(=O)Nc2ccccc2Cl)cc(OC)c1OC | -34 |
| O=C(O)C1SCCN1S(=O)(=O)c1ccc2ccccc2c1 (configuration not stated) | -1 |
| O=C(Nc1cnccn1)c1ccncc1 | -9 |
| C#CCn1ccc(O)c(Cc2c(F)cccc2Cl)c1=O | -9 |

A different layout for 2 compounds above:
> O=c1c(Cc2ccccc2)c(O)ccn1CCc1cnc[nH]1
  OX1R antagonist = -21
> Cc1ccc(S(=O)(=O)Cn2nnnc2C(c2ccc(F)cc2)N2CCC(C(N)=O)CC2)cc1 (configuration not stated)
  OX1R antagonist = -12

Next records follow:
| molecule | OX1R antagonist |
| --- | --- |
| Cc1ccc2nsnc2c1NS(=O)(=O)c1c(C)ccc2nsnc12 | -2 |
| CN1CC(=O)N(C)c2ncn(Cc3ccccc3)c2C1=O | -13 |
| CCC1CCCCN1Cc1ccc(OC)c(OC)c1 (configuration not stated) | -2 |
| COC(=O)c1sccc1NC(=S)N1CCN(c2ccccc2)CC1 | -15 |
| COc1ccc([N+](=O)[O-])cc1NC(=O)C1CCCCC1C(=O)O (configuration not stated) | -9 |
| CCOC(=O)c1sc(NC(=O)Cc2ccc(C)cc2)nc1C | -21 |
| Cc1ccc(C)c(N2CN(Cc3ccco3)CNC2=S)c1 | -8 |
| CC(C)C(NC(N)=O)C(=O)NC1CCCCC1 (configuration not stated) | -4 |

(listing goes on)
structure	OX1R antagonist
CCOC(=O)NC(=O)/C(C#N)=N\Nc1cccc(Cl)c1	7
CCn1nc(NC(=O)CC(C)C)c2cc3ccc(C)cc3nc21	-19
Cc1ccc(N2C(=O)CSC2c2cccnc2)c(Cl)c1 (configuration not stated)	-7
CC(=O)N1CCC(C(=O)c2ccc(Cl)cc2)CC1	-7
CC(C)(C)NC(=O)Cn1cc(C#N)c2cc(Br)ccc21	-14
CC(C)(Oc1ccc(Cl)cc1)C(=O)NCc1n[nH]c(=O)c2ccccc12	-31
CN(CCC#N)C(=O)COC(=O)/C=C/c1ccc2c(c1)OCO2	-13
Brc1ccccc1C1=Nn2c(nnc2-c2ccco2)SC1	-17
CCc1ccc(C(=O)COC(=O)CNC(=O)c2cccs2)cc1	-8
COc1cccc(CC(=O)OCC(=O)NC(Cc2ccccc2)C(C)=O)c1 (configuration not stated)	-18
O=C(CN1C(=O)NC2(CCc3ccccc32)C1=O)Nc1ccc(N2CCOCC2)cc1 (configuration not stated)	-2
CO/N=C/NC(=O)N1OC[C@@H]2COc3ccc4ccccc4c3[C@@H]21	-25
CC(C(=O)NCCc1ccccc1)N1c2cccc3cccc(c23)S1(=O)=O (configuration not stated)	-14
CCc1cccc(C)c1NC(=O)CSc1nc2ccccc2n1CC(=O)N(C)C	-13
O=[N+]([O-])c1cccc(/C=N/N2CCN(Cc3ccc(Cl)cc3)CC2)c1	-10
COc1ccc(C(=O)NCCCSc2ccccc2)cc1F	-16
COc1ccc2oc(C(=O)OCC(=O)N(Cc3ccccc3)C(C)C)c(C)c2c1	-26
CCOC(=O)N1CCC(N2C(=O)c3ccccc3C2Nc2cc(Cl)c(OC)cc2OC)CC1 (configuration not stated)	-22
CC1CCN(c2c(NCC3CCC(C(=O)NC4CCCCCC4)CC3)c(=O)c2=O)CC1 (configuration not stated)	-5
Cc1nc2ccc(NC(=O)c3ccc([N+](=O)[O-])cc3)cc2[nH]1	-22
COc1cc(NC(=O)c2cnn3c(C(F)F)cc(C4CC4)nc23)c(OC)cc1Cl	-11
Cc1ccnc(NC(=O)Nc2cccc(F)c2)n1	-5
CCCc1c(O)nc(SCC(=O)NCCc2ccc(OC)c(OC)c2)[nH]c1=O	-16
CC(CCc1ccccc1)NC(=O)CCCCCNc1nc(=S)[nH]c2ccccc12 (configuration not stated)	-33
CCC(C(=O)OC)n1c(-c2ccccc2)nc2ccccc2c1=O (configuration not stated)	-43
CCOc1cc(CNCCO)ccc1OCC(=O)NC(C)(C)C	-3
O=C(CCN1C(=O)[C@@H]2Cc3ccccc3CN2C1=O)NCCc1ccccc1	-2
COc1ccc(-c2nn(C)c3sc(C(=O)NCc4ccco4)cc23)cc1OC	-7
Cc1ccc(OCC(=O)N2CCN(C3=NS(=O)(=O)c4ccccc43)CC2)cc1	-12
O=C(Nc1nnc(S(=O)(=O)N2CCCCC2)s1)c1ccccc1Br	-13
CC1CCC(NC(=O)CCN2C(=O)C3C4C=CC(C4)C3C2=O)CC1 (configuration not stated)	-19
O=C(Nc1ccc(Cl)cn1)c1cc(S(=O)(=O)N2CCCCC2)ccc1Cl	-1
Cc1c(Cl)cccc1NC(=O)CSc1nc2ncc(Cl)cc2[nH]1	-20
COc1ccc(C/C(C)=N/NC(=O)c2cc(C)oc2C)cc1	-3
O=C(CN1CCC(O)(c2cccc(C(F)(F)F)c2)CC1)NCCc1ccccc1	-19
O=C(NCc1ccc(Cl)cc1)NCc1ccc(Cl)cc1	-9
Nc1nnc(C(=O)c2ccccc2N)s1	-2
COc1ccc(C(=O)Nc2cc(C)c(NC(=O)c3ccccc3OC)cn2)cc1	-24
CC1(C)CC(NC(=O)Nc2ccc([N+](=O)[O-])cc2)CC(C)(C)N1	-2
CCOC(=O)c1cc(-c2ccc(C)cc2)n(CCC(=O)NCCN(C)C)c1C	-10
COC(=O)c1ccccc1NC(=O)/C=N/O	-12
CCOc1ccc2ccccc2c1C(=O)N[C@@H]1C(=O)N2[C@@H]1SC(C)(C)[C@@H]2C(=O)O	-8&-9
CC(=O)N/C(=C\c1ccc(F)cc1)C(=O)NC(C(=O)O)C(C)C (configuration not stated)	-6
COc1ccccc1NC(=O)CCN1CCCCCC1	-1
Nc1ccc(S(=O)C(F)(F)F)cc1 (configuration not stated)	7

Filtered by structure, the entries above with a CF3 group.
structure	OX1R antagonist
O=C(CNC(=O)c1ccccc1C(F)(F)F)N/N=C/c1cccs1	-1
O=C(CN1CCC(O)(c2cccc(C(F)(F)F)c2)CC1)NCCc1ccccc1	-19
Nc1ccc(S(=O)C(F)(F)F)cc1 (configuration not stated)	7

Next section:
structure	OX1R antagonist
Cc1cc(C(=O)OCC(=O)N2CC(C)OC(C)C2)ccc1[N+](=O)[O-] (configuration not stated)	-11
CC(=C\C(=O)O)/C(=C/c1ccccc1)C(=O)O	-20
COc1ccc2c(C)c(CC(=O)N3CCN(C(=O)C4COc5ccccc5O4)CC3)c(=O)oc2c1 (configuration not stated)	-29
NNC(=O)Cn1c(-c2ccccn2)nc2ccccc21	-25
Cc1nc2ccccc2c2oc(C(=O)NCCCN3CC(C)CC(C)C3)cc12 (configuration not stated)	-18
O=C(CCNC(=O)c1ccccc1Cl)Nc1nccs1	-10
CC(=O)Nc1cccc(NC(=O)C2CC3CCC2C3)c1 (configuration not stated)	-8
COc1ccc(C2C(C#N)=C(N)Oc3cc(C)[nH]c(=O)c32)c(OC)c1OC (configuration not stated)	-2
CCOc1ccc(C(=O)c2ccncc2)cc1	-11
Cc1ccc(NC(=O)COc2ncnc3c(Cl)cc(Cl)cc23)cc1[N+](=O)[O-]	-8
COc1cc(C(=O)NC2CCN(Cc3nnnn3Cc3ccc(F)cc3)CC2)cc(OC)c1OC	-31
Cc1cccc(-n2ncc3c(NC(C)C)ncnc32)c1	-14
CCOC(=O)c1c(NC(=O)CSc2nnnn2C)sc(C)c1C	-34
Cn1c(SCC(=O)Nc2ccccc2F)nc2c(c1=O)SCC2	-22
O=C(Nc1nnc(S(=O)(=O)N2CCOCC2)s1)c1cccc(Br)c1	5
O=C(COC(=O)c1ccncc1)NC(=O)C1CCCCC1	-17
Cc1ccc(N2C(=N)SCC2=O)cc1Cl	-18
Nc1nnc(SCC(=O)c2cccc([N+](=O)[O-])c2)s1	-12
Cc1ccc(Cl)cc1N1CCN(C(=O)C2CCC(=O)N2C(C)C)CC1 (configuration not stated)	-18
O=C(COc1ccc(Cl)cc1)NNC(=O)c1cccnc1	-6
COc1ccc(NC(=O)c2ccccc2O)c(OC)c1	-10
CCOc1ccc(C2C(C(=O)Nc3ccccc3)=C(C)N=c3s/c(=C/c4cccc(OCC(=O)O)c4)c(=O)n32)cc1 (configuration not stated)	-28
Clc1ccc(-c2csc(N/N=C/c3ccc4c(c3)OCO4)n2)cc1	-33
COC(=O)c1cc(OC)c(OC)cc1NC(=S)N1CCCC(CO)C1 (configuration not stated)	-7
Cc1ccc(S(=O)(=O)N(C)c2ccc(OCC(=O)NCc3ccco3)cc2)cc1	-32
CC(C)c1ccc(NC(=O)CSc2ncccc2C(=O)Oc2cccc([N+](=O)[O-])c2)cc1	-13
O=C(NC1CCCCCC1)c1ccccc1-c1ccccc1	-32
NCCOc1ccc(C2CCCCC2)cc1	9
